# T cruzi repl = T. cruzi replication inhibition; 300,000 compounds, 1.4% hits; T. cruzi beta-gal in NIH3T3, luminescence, 90 h; inhibition, % (test concentration not listed);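 active = mean inhibition across valid replicates above about 55%, limit read from the data; inconclusive = mean below that limit but half or more replicates reach it; inactive = mean below it, under half of replicates reach it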;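 note: signal also drops with host cell toxicity which is not excluded here; 0% = plate median of DMSO wells and 100% = zero luminescence signal; higher percent means less beta-gal luminescence so fewer parasites; stock transfer was 50 nL into about 50 µL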
# Beta apoptosis = beta cell apoptosis inhibition; INS-1E cytokine-induced death, ATP luminescence, 48 h; percent of positive-control rescue, neutral wells zero; protection from apoptosis, % (no concentration beside the values); 300,000 compounds, 0.8% hits;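 active = all replicates at 75% or more, or half of them and the mean; inconclusive = half reach 75% but not the mean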;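 note: 0% = cytokine-treated negative control wells and 100% = positive control rescue; higher means more ATP so stronger rescue from cytokine killing; wells of about 40 µL received 100 nL stock; the first replicate is given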
# RanGTP-Imp inh = disruptors of Ran-importin-beta complex formation – biochemical, FRET, CFP-Ran, YFP-importin-beta, homogeneous, primary screen; cell-free CFP-Ran/YFP-importin-beta FRET ratio; inhibition, % (no concentration beside the values); 300,000 compounds, 1.1% hits;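 active = most replicates above 15%; inconclusive = exactly half above 15%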;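 note: 0% = DMSO wells and 100% = Ran loaded with GDP instead of GTP; wells of about 40 µL received 100 nL stock; the first replicate is given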
# UCH37 DUB inh = blocks the human deubiquitinase UCH37 | 330,000 compounds, 0.33% hits | inhibition, % (test concentration not listed) | purified proteasome/UCH37, Ub-AMC cleavage fluorescence | AID 588478;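 active = mean of two replicates above 20%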;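 note: 0% = compound-free wells with enzyme and 100% = wells lacking proteasome; stock transfer was 100 nL into about 20 µL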
#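 Material: Human UCH37 enzyme supplied as purified proteasome complex | Schedule: 30 min compound-proteasome preincubation then 25 min substrate reaction, room temperature | Detection: AMC fluorescence from Ub-AMC cleavage, excitation 355 nm, emission 460 nm | Benchmarks: Wells without proteasome as full block, compound-free enzyme plus substrate as uninhibited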
# B2AR ag = agonists of human beta-2 adrenergic receptor inducing internalization; Am2.2-beta2AR cells, FAP receptor internalization, flow cytometry; reference of the scale not given here; response, % (test concentration not listed); 340,000 compounds, 0.43% hits; AID 504454;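 active = response above a set limit, near 3 SD of response in nonfluorescent compounds, cut at about 42% in these data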;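 note: stock transfer was 100 nL into about 11 µL; a reference agonist was the positive control; negative values mostly stem from fluorescent compounds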
# Calb FLC = affects C. albicans growth with fluconazole | 300,000 compounds, 0.57% hits | growth inhibition, % (test concentration not listed) | AID 1979 | C. albicans CaCi-2 (fluconazole-resistant clinical isolate) + fluconazole, Alamar Blue growth, 48 h;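 active = most replicates above 75%; inconclusive = exactly half above 75%; inactive = most below 75%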;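 note: all wells also contain fluconazole at 8 µg/ml as a sub-toxic cotreatment; 0% = median of DMSO wells and 100% = median of geldanamycin control wells; wells of about 8 µL received 7.5 nL stock; the first replicate is given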
# Bfl-1 A1 inh = inhibitors of the anti-apoptotic protein A1, read as caspase activation | MEF A1-2A-BIM cells, Caspase-Glo 3/7 luminescence, 3 h; percent of clofoctol response, vehicle zero | caspase activation, % (no concentration beside the values) | 330,000 compounds, 0.066% hits;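 active = over half of replicate activation scores above 10%, or exactly half above 10 with the replicate mean above 10; inconclusive = replicate mean below 10 yet half the replicates above 10; inactive = over half of replicates below 10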;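 note: wells of about 30 µL received 50 nL stock; many hits fall short of the cut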
# LANA-H2B inh = blocks KSHV LANA binding to histone H2A/H2B; Q9QR71; cell-free LANA-H2A/H2B peptide, fluorescence polarization; inhibition, % (no concentration beside the values); 320,000 compounds, 0.6% hits; in the data active = inhibition mostly above about 10%, no sharp cut-off; inactive = mostly below about 6.7%;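 note: stock transfer was 7.5 nL into about 10 µL; 0% = median of vehicle wells and 100% = median of positive control wells; one replicate is shown; the record names a cut of 25% in any replicate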
# Target sequence (Q9QR71 whole entry, looked up): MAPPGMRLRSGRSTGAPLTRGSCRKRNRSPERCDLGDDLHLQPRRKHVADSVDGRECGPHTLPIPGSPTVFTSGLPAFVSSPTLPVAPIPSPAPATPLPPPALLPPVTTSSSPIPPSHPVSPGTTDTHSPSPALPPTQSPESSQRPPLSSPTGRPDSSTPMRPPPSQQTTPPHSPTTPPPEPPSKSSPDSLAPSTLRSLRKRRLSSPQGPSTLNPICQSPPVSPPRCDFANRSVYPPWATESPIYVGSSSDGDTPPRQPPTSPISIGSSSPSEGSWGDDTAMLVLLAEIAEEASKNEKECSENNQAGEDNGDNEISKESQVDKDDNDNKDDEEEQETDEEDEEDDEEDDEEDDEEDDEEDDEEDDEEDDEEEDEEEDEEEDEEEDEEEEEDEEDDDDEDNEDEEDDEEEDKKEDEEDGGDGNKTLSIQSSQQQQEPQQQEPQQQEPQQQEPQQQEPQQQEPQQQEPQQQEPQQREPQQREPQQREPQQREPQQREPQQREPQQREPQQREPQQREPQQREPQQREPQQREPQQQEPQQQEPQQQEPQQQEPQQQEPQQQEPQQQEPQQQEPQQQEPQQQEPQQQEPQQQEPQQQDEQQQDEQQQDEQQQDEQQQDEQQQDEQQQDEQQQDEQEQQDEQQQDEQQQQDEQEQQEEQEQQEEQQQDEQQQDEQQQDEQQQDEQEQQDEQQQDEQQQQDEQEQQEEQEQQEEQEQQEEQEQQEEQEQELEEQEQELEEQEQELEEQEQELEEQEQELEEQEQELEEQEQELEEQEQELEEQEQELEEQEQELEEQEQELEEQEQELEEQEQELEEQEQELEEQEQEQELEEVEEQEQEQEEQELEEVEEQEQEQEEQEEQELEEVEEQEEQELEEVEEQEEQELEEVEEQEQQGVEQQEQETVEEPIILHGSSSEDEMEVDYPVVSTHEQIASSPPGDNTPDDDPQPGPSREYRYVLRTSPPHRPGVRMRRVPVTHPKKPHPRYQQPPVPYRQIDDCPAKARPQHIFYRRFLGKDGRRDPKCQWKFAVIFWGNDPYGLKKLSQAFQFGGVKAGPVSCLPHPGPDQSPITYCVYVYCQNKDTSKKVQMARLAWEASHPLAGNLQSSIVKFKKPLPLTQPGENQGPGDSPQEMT
# Numbers without * were called inactive; i = inactive; ? = inconclusive; · = not tested or not shown.
SMILES,Calb FLC,Bfl-1 A1 inh,RanGTP-Imp inh,T cruzi repl,UCH37 DUB inh,LANA-H2B inh,B2AR ag,Beta apoptosis
C=CCN(c1ccccc1)S(=O)(=O)c1cccc2cccnc12,6,-0.9,-7.2,-8,2.0,2.7,9,-2
CC(C)c1cc(N2CCC(=O)NC2=O)cc(C(=O)O)c1O,-3,1.3,3.7,-13,-22,-1.8,26,-6
Cc1ccc(NC(=O)NC(=O)COc2c(F)c(F)cc(F)c2F)c(C)c1,·,1.1,·,·,-0.1,-5.1,0,-3
COc1ccc(C(CNC(=O)COc2ccccc2C#N)N2CCOCC2)cc1 (stereo not given),-1,0.5,3.5,6,2.6,-5.1,1,0
Cc1cccn2c(=O)c3cc(C(=O)NCCN4CCOCC4)n(C)c3nc12,-17,-0.2,4.1,-3,i,2.9,-4,0
COc1cc2[nH]c3c(=O)n4c(nc3c2cc1OC)SCCC4,-2,-0.3,-1.0,-7,-25,-7.9,-12,-8
O=Nc1c(O)n(Cc2c(Cl)cccc2Cl)c2ccccc12,6,0.5,2.2,-8,4.1,0.5,7,-10
CCOC(=O)[C@@H]1[C@H]2COc3ccccc3[C@@H]2N2C(=O)N(c3ccc(C)cc3)C(=O)[C@]12C,6,0.3,1.1,-9,7.1,-1.7,6,-4
Cn1c(Cc2ccccc2)nnc1SCC(=O)N1CCN(c2ccccc2)CC1,2,-0.7,-1.4,-8,0.6,-6.1,-1,5
CC1CCCCC1NS(=O)(=O)c1ccc(-n2cnnn2)cc1 (stereo not given),5,-0.3,-5.4,0,0.9,6.2,-7,3
CN1CCN(CCCNC(=O)c2cc3c(=O)n(C)c4ccccc4c3s2)CC1,2,-0.9,?,-15,-135,-1.7,-11,18
C=CCn1cnc2c(oc3ccccc32)c1=O,1,1.3,-1.0,-15,0.0,-3.0,-12,-6
CCn1c(SCC(=O)Nc2nc(C)c(C)s2)nnc1-c1cccnc1,-7,1.5,-1.1,0,1.8,3.8,-4,-4
CCCCCC(=O)NC(=S)Nc1ccc2oc(=O)ccc2c1,13,0.5,-0.1,·,0.2,3.8,-4,2
[O-][n+]1c2ccccc2c2n1CCCN=C2c1ccc(Cl)cc1,-9,-0.3,-4.0,-9,0.5,-0.2,-10,8
O=C(Nc1ccc2c(c1)CCC2)Nc1ccccc1F,1,-9.9,0.2,4,0.7,-0.6,3,1
CC(C)CCNC(=O)CCc1nnc2n(CCCOC(C)C)c(=O)c3ccccc3n12,-2,-0.1,-2.3,-7,3.0,1.0,-14,-1
COc1cc(OC)cc(-c2c(C#Cc3ccsc3)c3cc(-c4ccc5c(c4)OCCO5)ccc3n2C)c1,·,0.8,·,·,-47,-4.4,4,3
COc1ccc(CNc2ncccn2)cc1OC,-5,0.8,-1.2,-1,-0.8,2.2,-5,-2
Cc1ccc(C)c2[nH]c(=O)c(C(c3nnnn3C3CCCC3)N3CCOCC3)cc12 (stereo not given),-1,-0.1,-2.3,2,-16,0.9,-8,-4

# (continued)
SMILES,Calb FLC,Bfl-1 A1 inh,RanGTP-Imp inh,T cruzi repl,UCH37 DUB inh,LANA-H2B inh,B2AR ag,Beta apoptosis
Cc1c(C(c2cc3c(cc2Br)OCO3)c2c(C)n(C)n(-c3ccccc3)c2=O)c(=O)n(-c2ccccc2)n1C,73,0.5,2.4,-18,2.7,1.2,-14,-2
CC(Sc1ncnc2c1cnn2-c1ccccc1)C(=O)Nc1ccc(N2CCOCC2)cc1 (stereo not given),·,-1.1,·,·,-1.9,·,7,-7
CCOC(=O)C1(Cc2ccccc2C)CCCN(C(=O)c2ccc(CSC)o2)C1 (stereo not given),4,0.1,2.1,9,-0.4,0.7,2,-5
Cc1sc2nc(SCC(=O)NCCOCCO)nc(N)c2c1C,0,-0.1,-2.5,-6,3.3,2.2,-6,0
N#CCCN(C(=O)CSc1ccc2c(c1)OCCO2)c1ccc(F)cc1,0,1.0,1.3,7,-0.6,1.0,-2,-5
O=S1(=O)CCOC[C@H](c2ccccc2)N1Cc1cccc(Cl)c1,0,0.3,0.9,-3,4.9,0.4,-4,-2
CCOC(=O)c1cn(CC)c2cc(Cl)c([N+](=O)[O-])cc2c1=O,-28,-0.3,-2.0,-1,7.2,1.2,-5,-3
COc1cc(OC)c(C2N(C)c3ccccc3N2C)cc1OC,-12,0.8,-4.1,-18,·,2.2,·,-5
C/C(=N\N=C1/SC(CC(=O)O)C(=O)N1c1ccccc1)c1ccc(C)cc1 (stereo not given),12,1.2,0.0,-1,·,-0.8,-3,-4
Cn1c(N)c(C(=O)COC(=O)c2ccccc2C(=O)c2ccccc2)c(=O)n(C)c1=O,·,-0.8,·,·,3.7,-8.4,5,0
Nc1nonc1-n1nnc(C(=O)N/N=C/c2ccc(Br)cc2)c1CN1CCOCC1,5,3.3,0.5,-12,·,5.8,8,-6
Cc1ccc(-n2c(SCC(=O)NCc3ccco3)nnc2-c2cccnc2)cc1,-2,0.1,5.0,-3,1.6,3.4,0,0
Cc1cc(OCc2nnc(SC(C)C(=O)O)n2Cc2ccccc2)ccc1Cl (stereo not given),8,·,3.5,-1,4.9,·,2,·
O=C(O)Cc1sc(-c2ccccc2)nc1-c1cccs1,15,-0.5,3.5,-8,-15,-1.8,3,1
COc1ccc(C(=O)/C=C/c2ccc(O)cc2)cc1,5,-0.6,-2.3,-5,-0.7,-0.3,4,-1
Cn1nc(C(C)(C)C)c([N+](=O)[O-])c1C(=O)NC1CCCCC1,1,0.8,-5.7,-13,1.2,1.9,-2,-12
Clc1ccc2nc(CN3CCCc4ccccc43)cn2c1,20,1.4,-3.1,34,2.1,-3.1,6,-1
O=C(c1ccc(Cl)c(Cl)c1)N1CCC(=O)N(C(COCc2cccc(Cl)c2)Cc2ccccc2)CC1 (stereo not given),9,-1.0,0.1,46,2.7,6.3,11,14
O=C(CN1CCCC1)Nc1c2c(cc3c1CCC3)CCC2,-9,0.5,0.5,3,·,3.0,1,-3
O=C1CCN(Cc2ccc(O)cc2)CCN1CCO,2,0.0,-1.1,-2,-2.9,-0.1,3,-6

# New compounds follow:
SMILES,Calb FLC,Bfl-1 A1 inh,RanGTP-Imp inh,T cruzi repl,UCH37 DUB inh,LANA-H2B inh,B2AR ag,Beta apoptosis
CCc1nc2c(c(=O)c3ccccc3n2C)c(=O)n1CCc1ccc(OC)cc1,20,-0.1,6.2,17,·,-1.6,·,0
O=C(Oc1ccc2c(c1)OCC2=O)c1ccc(Cl)cc1,6,0.3,1.2,-29,2.3,2.4,0,-1
O=C(NCc1ccccc1)C1CC(=O)N(C2CCCCC2)C1 (stereo not given),0,-0.5,-0.9,-7,1.5,1.9,1,-4
Cn1nnc2cc(C(=O)N3CCN(c4ccccn4)CC3)ccc21,17,-0.3,-1.8,0,2.2,-1.4,1,-7
CCCNC(=O)Cn1cccc1C(=O)c1ccccc1,-8,0.6,-3.5,-1,0.4,0.3,-1,-5
Cc1ccc(OCCn2c(C)nc3ccccc32)cc1,-12,0.3,1.5,-15,2.7,2.3,2,8
COc1ccccc1N1CCN(C(=O)CSc2nc3ccccc3c(=O)n2CC2CCCO2)CC1 (stereo not given),5,0.3,2.3,40,2.1,-6.3,5,-8
CC(=O)c1c(C)nn(CC(=O)NC2CCCN(Cc3ccc(CC(C)C)cc3)C2)c1C (stereo not given),17,-1.0,1.5,-12,2.0,0.4,-2,5
CC1CCC(NC(=O)c2ccc3snnc3c2)CC1 (stereo not given),-1,-0.9,0.1,2,3.6,1.2,-1,5
CCOc1ccc2nc(NC(=O)C3CCCN(S(=O)(=O)c4cccs4)C3)sc2c1 (stereo not given),11,0.7,1.5,61*,5.2,-5.9,-2,4
Cn1c(C(=O)NCC2CCCO2)cc2c(=O)[nH]c3ccccc3c21 (stereo not given),3,0.4,2.2,-8,0.3,-3.4,-18,-2
O=C(C[n+]1cccc(O)c1)Nc1ccc(Br)cc1,6,-2.1,0.1,-5,3.4,1.7,-2,-1
CCN(CC)CC(=O)Nc1sc(C)c(C)c1C(=O)c1ccc(C)cc1,21,0.7,-2.5,18,2.3,1.0,8,3
Cc1cccc(C)c1OCc1cc(C(=O)N2CCNC(=O)C2)no1,-8,1.3,5.1,-2,-0.4,-1.4,-6,0
COc1cc(NC(=O)c2ccco2)c(OC)cc1NC(=O)Nc1cccc(Cl)c1,-1,-0.7,-0.3,57*,-2.8,2.4,-8,1
COc1cccc(NC(=O)Cn2cnc3sc(C)c(S(=O)(=O)N4CCN(C)CC4)c3c2=O)c1,-8,0.8,-2.4,5,0.9,-3.6,1,-8
[O-]/[N+](=C/c1cccnc1)c1ccc(Br)cc1,-17,-1.5,0.0,8,5.1,·,-1,-7
CCOc1ccc2c(c1)/C(=C(\C(Cl)=C(Cl)Cl)[N+](=O)[O-])N2,5,0.3,-110,-1,-11,-4.1,-79,-6
O=C(CCCOc1ccc(Cl)cc1Cl)N/N=C/c1ccccc1O,50,0.3,-1.8,0,·,-0.5,-10,-4
CC1CSc2nnc(CCc3ccccc3)n21 (stereo not given),-1,-0.9,-3.0,-13,0.4,-7.8,4,-5

# (more compounds)
SMILES,Calb FLC,Bfl-1 A1 inh,RanGTP-Imp inh,T cruzi repl,UCH37 DUB inh,LANA-H2B inh,B2AR ag,Beta apoptosis
COc1ccc(C2(C(=O)NCCCN3CCOCC3)CCOCC2)cc1,-3,-0.2,2.9,4,3.8,-3.4,4,-7
Cc1ccc(Cl)cc1N1CCN(C(=O)C2CCC(=O)N2C(C)C)CC1 (stereo not given),-2,0.0,-5.8,0,0.5,-0.7,7,-7
CS(=O)(=O)N(CC(=O)Nc1ccccc1)c1cccc(Cl)c1Cl,26,0.1,1.8,12,1.0,4.4,4,·
CC(C)NC(=O)N(C)C[C@H]1Oc2ccc(NC(=O)Nc3ccc(C(F)(F)F)cc3)cc2C(=O)N([C@H](C)CO)C[C@@H]1C,·,-1.0,·,·,0.7,-5.0,-3,2
O=C(NC1CC1)c1cc(F)c(F)cc1Cl,3,0.3,-2.0,12,-1.6,-0.4,0,8
O=C(Nc1nccs1)C1=COCCO1,·,-1.1,·,·,5.6,-2.5,-6,-1
Cc1ccc(O)c(-c2cc(C(=O)NCc3ccccc3)[nH]n2)c1,0,0.4,-1.1,16,-14,-2.2,1,-6
CC(=O)c1sc(-c2ccccc2Cl)nc1C,-1,-0.1,-0.2,-6,-1.8,3.1,-16,0
O=C(Nc1ccccc1Cl)C1Cc2ccccc2O/C1=N\O (stereo not given),2,-0.5,3.0,-3,·,0.6,-1,1
CCCSC1=N/C(=C\c2ccsc2)C(=O)S1,-10,-1.2,4.5,-11,2.4,4.4,0,-9
NS(=O)(=O)c1ccc(CCNC(=O)c2cc3ccccc3s2)cc1,3,1.4,-1.3,-14,1.3,-6.5,3,0
CCOC(=O)c1sc(N(C)C(C)=O)nc1C,3,-0.4,-0.9,2,1.9,-4.1,-5,0
CC(=O)N1CCN(c2ccc(NCc3ccc(Br)o3)cc2)CC1,·,0.4,·,·,4.2,1.0,-1,-1
